HPGD inh – qHTS Assay for Inhibitors of HPGD (15-Hydroxyprostaglandin Dehydrogenase) | 15-hydroxyprostaglandin dehydrogenase [NAD(+)] (Homo sapiens), P15428 | purified HPGD, NADH fluorescence kinetic, PGE2 substrate | Potency, µM, without a hit: top-dose activity change, negative = inhibition, most hits filed as inhibitors | 150,000 tested, 4.3% active; active = well fitted inhibition curve with a large enough effect (not every such curve was filed as active); inconclusive = small, poorly fitted or top-dose-only effect, or another doubt; inactive = no such curve, though single readings can be large or run the other way;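 also: top concentration of the series not given in the record; plate controls included wells without enzyme; inactives centre near -10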
Target sequence (P15428 whole entry, looked up): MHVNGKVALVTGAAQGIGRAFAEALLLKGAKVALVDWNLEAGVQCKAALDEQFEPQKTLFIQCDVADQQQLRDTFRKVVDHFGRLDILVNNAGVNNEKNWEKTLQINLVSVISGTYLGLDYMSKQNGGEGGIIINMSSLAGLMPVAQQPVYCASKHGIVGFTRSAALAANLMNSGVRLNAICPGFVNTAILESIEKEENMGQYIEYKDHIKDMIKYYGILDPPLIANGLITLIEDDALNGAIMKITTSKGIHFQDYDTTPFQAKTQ
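NADH formation kinetics: reaction with 30 uM PGE2 and 1 mM NAD+ (final), 20 nM enzyme, Tris-HCl pH 8 with Tween 20, after 15 min compound preincubation at room temperature. Fluorescence change, last versus first of five reads.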
Numbers without * were called inactive; ? = inconclusive; & = joins results of further samples. % is scaled to controls: 0 for no effect and ±100 for the full control effect; potency is read from the fitted curve at half-maximal effect.

canonical_smiles | HPGD inh
OC12CCCCC1C(c1ccccc1)NCC2 (stereo not given) | -1.9%
CN1CCC2=C[C@H](O)[C@@H]3OC(=O)c4cc5c(cc4[C@H]3[C@H]21)OCO5 | -8.6%
[N-]=[N+]=[N-] | -10.2%
Clc1cc(Cl)c(Cl)c(Cl)c1 | -21.6%
O=P1(NCc2ccco2)COc2ccccc2OC1 | 1µM*
CN(C)C(=O)Nc1ccc(Cl)cc1 | -2.9%
NCCc1ccc(S(=O)(=O)O)cc1[N+](=O)[O-] | -5.5%
CCOC(=O)C(O)(c1ccc(N(CC)S(=O)(=O)c2ccccc2)cc1)C(F)(F)F (stereo not given) | -3.3%
CCC1=C(C)C(N2CCOCC2)=NP(N2CCOCC2)(N2CCOCC2)=N1 | -7.3%
CCCCC(CC)COC(=O)c1ccc(C(=O)OCC(CC)CCCC)c(C(=O)OCC(CC)CCCC)c1 (stereo not given) | -5.9%
CN(C)CC1CSCCC1(O)c1cccc(Cl)c1 (stereo not given) | 0.3%
O=[N+]([O-])c1cc(-c2ccc([As](=O)(O)O)cc2)ccc1[As](=O)(O)O | -4.0%
CS(=N)(=O)CC[C@@H](N)C(=O)O (stereo not given in full) | 0.5%
Nc1ccc(C2(c3ccc(N)cc3)c3ccccc3-c3ccccc32)cc1 | -11.6%
CN1C[C@H](C(=O)N[C@@]2(C)O[C@@]3(O)[C@H]4CCCN4C(=O)[C@@H](Cc4ccccc4)N3C2=O)C=C2c3cccc4[nH]cc(c34)C[C@@H]21 | -6.6%
Clc1cccc(SC2CCNCC2)n1 | 3.9%
Oc1c(Br)cc(Br)cc1Oc1ccc(Br)cc1Br | 7.08µM*
O=c1cccc2n1CC1CNC[C@H]2C1 | -12.8%&0.2%
Cn1c2ccccc2c2c(C(=O)N3CCC4(CC3)OCCO4)cn(C3CCCC3)c(=O)c21 | ?
COc1ccc(C(=O)Nc2sc3c(c2C(=O)O)CC(C)(C)OC3)cc1 | ?
C/C(=C/C=C/[C@@H](C)C(=O)O)[C@H]1CN[C@H](C(=O)O)[C@H]1CC(=O)O | -0.8%
CNP1(NC)=NC(C(F)(F)F)=NC(C(F)(F)F)=N1 | -11.8%
CC[C@]1(c2cccc(O)c2)CCCCN(C)C1 | 3.1%
C=CCc1ccc(OC)cc1 | -9.7%&-4.5%
CCCCSP1(=S)NCCCN1 | -8.6%
Nc1c(C(=O)OCc2ccccc2)c2nc3ccccc3nc2n1Cc1cccs1 | ?
CCOP(=S)(OCC)SCOC(=O)NCC(=O)OC | -5.9%
O=C(COc1ccc(Cl)cc1)NC1CN2CCC1CC2 (stereo not given) | -4.0%
CCCN(CCC)[C@@H]1CCc2c(OC)cccc2[C@@H]1C | 2.2%
CCCCCSc1cc(O)c(C(CNC)C(C)C)cc1OC (stereo not given) | -7.4%
COC(=O)c1ccc2[se]c(CC3CCCCC3)c(I)c2c1 | -2.2%
CCN1C[C@]2(COC(=O)c3ccccc3N3C(=O)C[C@H](C)C3=O)CC[C@H](OC)[C@@]34[C@@H]5C[C@H]6[C@H](OC)[C@H]5[C@](O)(C[C@@H]6OC)[C@@](O)([C@@H](OC)[C@@H]23)[C@@H]14 | -4.4%
NCCCP(=O)(O)O | -2.4%
CCCCC(=O)N/N=C/c1c(O)n(CC)c(=S)n(CC)c1=O | -21.6%
c1ccc(C2NCc3ccccc3-n3cccc32)cc1 (stereo not given) | -2.4%
COC(=O)C(c1ccccc1)C1CCCCN1 (stereo not given) | -5.4%
COc1cc2c(cc1O)-c1c(O)c(OC)cc3c1[C@H](C2)N(C)CC3 | ?
C=CCn1c(O)c(C(CC)=NC(C)c2ccccc2)c(=O)[nH]c1=O (stereo not given) | -15.4%
c1cc2cc(c1)C[n+]1ccc(c3ccccc31)NCc1ccc(cc1)CNc1cc[n+](c3ccccc13)C2 | -21.4%
c1ccc2c(CNC3CCCCCC3)c[nH]c2c1 | -4.0%
O=Cc1cn(Cc2ccc(F)cc2Cl)c2ccccc12 | -4.1%
O=C(O)c1cc[c]([Hg][Cl])cc1 | 0.282µM*
CN1CC(CNC(=O)OCc2ccccc2)CC2c3cccc4c3c(cn4C)CC21 (stereo not given) | -8.4%
COc1cccc(CN2CCN(C(=O)COc3ccc4ccccc4c3)CC2)c1 | -7.0%
COc1ccc(CN2CCN(c3ccccc3F)CC2)c(OC)c1 | -9.1%
Cc1cccc(CN(C)C)c1OC(=O)N(C)C | 2.6%
CC(=NCCN1CCCCC1)c1c(O)[nH]c(=O)[nH]c1=O | 0.4%
O=C(Cc1ccc(Cl)c(Cl)c1)N1CCCCC1CN1CCCC1 (stereo not given) | -9.0%
N#CCCCl | -8.0%&-4.0%
CCOC(=O)C1=C(C)OC(N)=C(C#N)C12C(=O)N(C)c1ccccc12 (stereo not given) | -7.3%
O=C(NC(=O)c1ccccc1Cl)Nc1ccc(OC(F)(F)F)cc1 | -11.1%
CCOc1ccccc1-n1c(O)c(C=Nc2c(C)n(C)n(-c3ccccc3)c2=O)c(=O)[nH]c1=O | -14.2%
CCc1c(C(=O)NN2C(=O)C3C4CCC(O4)C3C2=O)csc1C (stereo not given) | 1.5%
CCCC(C)C1(CC)C(=O)NC(=O)N=C1N (stereo not given) | -15.3%
C=C(C)[C@]12C[C@@H](C)[C@@]34OC(Cc5ccccc5)(O[C@@H]1[C@@H]3C=C(COC(=O)Cc1cc(I)c(O)c(OC)c1)C[C@]1(O)C(=O)C(C)=C[C@@H]41)O2 | -12.5%
Cc1nc2ccc(Cl)cn2c1P(=S)(N1CCOCC1)N1CCOCC1 | -4.1%
C/C=C/CC#N | -1.1%
Cc1ccccc1-n1c(C)cc(/C=C2/C(=O)NC(=O)N(Cc3ccco3)C2=O)c1C | -18.4%
CCn1cc(C(=O)c2ccccc2)c2ccccc21 | -9.5%
CC12CN3CC(C)(CN(C1)C31CCOCC1)C2=O | -13.3%

Next part.
canonical_smiles | HPGD inh
C/C(=N\N1CCCCC1)c1c(O)[nH]c(=O)[nH]c1=O | -29.9%
CCc1nnc(NC(=O)CCc2nc(C3=CCN(C)CC3)no2)s1 | 0.5%
C[C@@H]1O[C@H](O[C@H]2C[C@@H](O)[C@@]3(CO)[C@H]4[C@@H](O)C[C@]5(C)[C@@H](C6=CC(=O)OC6)CC[C@]5(O)[C@H]4CC[C@]3(O)C2)[C@@H](O)[C@H](O)[C@@H]1O | 0.0%
Cc1ccccc1O | -0.3%
O=C(Oc1ccccc1)N1CCC2(CCN(Cc3ccccc3)CC2)CC1 | -1.6%
CCCC[N+](=O)[O-] | -5.5%
CCOP(=S)(OCC)SCSC(C)(C)C | -8.9%
Cc1cc(C)c(-n2c(O)c(/C=N/N3CCCCC3c3cccnc3)c(=O)[nH]c2=O)c(C)c1 (stereo not given) | -2.0%
O=C(Oc1ccccc1)N1CCC2(CC1)CCN(C(c1ccccc1)c1ccccc1)CC2 | -10.5%
CC(=O)C1C2c3ccccc3OC1(C)N=c1s/c(=C/c3cn(C)nc3C)c(=O)n12 (stereo not given) | 28.2µM*
CN(C)P(=O)(CCl)Nc1ccccc1 (stereo not given) | -19.1%
CCS(=O)(=O)NCc1nnc2n1-c1ccc(Cl)cc1C(c1ccccc1)=NC2 | -7.7%
O=C(Nc1ccc(Cl)cc1C(=O)c1ccccc1)c1ccc(Br)o1 | -16.4%
CC(C)(C)NC[C@@H](O)COc1cccc2[nH]c(C#N)cc12 | -2.2%
CCOC(=O)N1CCN(C(C)C(=O)c2c[nH]c3ccccc23)CC1 (stereo not given) | -6.1%
c1ccc(C[N+]23CN4CN(CN(C4)C2)C3)cc1 | -3.9%
Clc1cccc(Cl)c1Cl | -10.3%
CCN(CC)/[N+]([O-])=N/O | -2.2%
Clc1ccc(Cl)cc1 | -7.6%
O=C(CNC(=O)OCc1ccccc1)Nc1ccc(Br)cc1C(=O)c1ccccc1 | -2.3%
O=c1cccc2n1CC1CC2CN(C(c2ccccc2)c2sc3ncnn3c2O)C1 (stereo not given) | -17.6%
C/C(=N\NC(=S)Nc1ccccc1)c1c(O)n(C)c(=O)n(C)c1=O | ?
CC1(C)C(c2ccccc2)=NC(c2cccnc2)=[N+]1[O-] | -19.2%
CC(C)CCNC(=O)c1c(N)n(Cc2ccc3c(c2)OCO3)c2nc3ccccc3nc12 | ?
COc1ccc(NC(=O)N2CCC3(CC2)CCN(C(=O)Oc2ccccc2)CC3)cc1 | -13.1%
COc1cc2c(cc1OC)C(C(=O)N1CCC3(CC1)OCCO3)C(c1ccccc1F)N(C)C2=O (stereo not given) | -13.7%
Cc1cc(NC(=O)COC(=O)c2c(C)nn(Cc3ccccc3Cl)c2C)no1 | -1.6%
CC(C(=O)c1cn(C)c2ccccc12)c1ccccc1 (stereo not given) | -15.4%
CN1CCN(c2ccc([N+](=O)[O-])c(N)c2)CC1 | -2.0%
[N-]=[N+]=CC(=O)CC[C@H](N)C(=O)O | -4.7%
Fc1ccccc1N1CCN(Cc2ccc3c(c2)OCO3)CC1 | -6.4%
C=C(C)c1ccccc1 (tested in a mixture with another compound) | 0.8%
CCC(C)C1N=C(c2ccccc2)c2cc(Cl)ccc2N(CC(=O)NCc2ccco2)C1=O (stereo not given) | -3.2%
COc1ccc2c(c1)c(C(=O)CN1CCC3(CC1)OCCO3)c(C)n2Cc1ccccc1 | -1.3%
CCN(CC)CCn1ncc2c(N)ncnc21 | -4.3%
CCOc1ccc(Cc2c(O)[nH]c(=O)[nH]c2=O)cc1 | -10.0%
O=C(c1ccc2c(c1)OCO2)N1CCC2(CC1)OCCO2 | 25.1µM*
CN1C(=O)C(=Cc2ccc(N3CCCCC3)o2)C(=O)N(C)C1=S | -22.8%
NC(=O)CSc1nnc([C@@H](N)Cc2c[nH]c3ccccc23)o1 | 2.4%
c1ccc2c(c1)[I+]c1ccccc1-2 | -15.8%&-12.3%

Molecules listed so far that have a tert-butyl group, in the order listed:
canonical_smiles | HPGD inh
CCOP(=S)(OCC)SCSC(C)(C)C | -8.9%
CC(C)(C)NC[C@@H](O)COc1cccc2[nH]c(C#N)cc12 | -2.2%

Further compounds follow.
canonical_smiles | HPGD inh
CC(C)NC[C@H](O)c1ccc(N)c(C#N)c1 | -12.5%
O=C(Nc1cccc(F)c1)N1CC2(CCN(C(=O)Oc3ccccc3)CC2)C1 | -7.5%
O=C1NC(=O)N(c2ccccc2F)C(=O)/C1=C/c1ccc(Sc2nc3ccccc3[nH]2)o1 | 3.55µM*
CC12CCCCC1N(O)CN2O (stereo not given) | 9.0%
CC(C)OS(C)(=O)=O | -11.4%
O=C(c1ccncc1)N1CCC2(CC1)CN(Cc1ccccc1)C2 | -3.5%
N#Cc1cc(F)c(N2CCNCC2)cc1Cl | -3.1%
C#CCN(C)[C@H](C)Cc1ccccc1 | -1.3%
O=C(COC(=O)Cc1ccccc1)Nc1cc(S(=O)(=O)N2CCOCC2)ccc1N1CCCC1 | -19.5%
CCCCCCCCCCCCCCCC[n+]1ccccc1 | -4.7%&-2.1%
CCCCn1c(O)c(C(C)=NCCN2CCOCC2)c(=O)[nH]c1=O | -3.7%
c1ccc2c(CCNCc3ccc4c(c3)OCO4)c[nH]c2c1 | -8.9%
COc1cccc(C2(O)CCSCC2CN(C)C)c1 (stereo not given) | 3.6%
COc1cc2c3cc1Oc1c(O)c(OC)cc4c1[C@@H](Cc1ccc(cc1)Oc1cc(ccc1O)C[C@H]3N(C)CC2)N(C)CC4 | -9.0%
CCOP(=O)(OCC)C1(O)C(=O)Nc2ccc(Br)cc21 (stereo not given) | -1.4%
O=c1[nH]c(=S)n(CCC2=CCCCC2)c(O)c1C=NC1CCN(Cc2ccccc2)CC1 | -10.0%
CCCCC/C=C\C/C=C\C/C=C\C/C=C\CCCC(=O)NCc1ccoc1 | -26.3%
CC(=O)O[C@]1(c2ccccc2)CCN(C)[C@H]2CCCC[C@@H]21 | -5.9%
CC(C)CN1CC[C@@]2(CCCN(C(=O)c3ccncc3)C2)C1 | -9.2%
C[n+]1c(/C=C\c2ccc(O)c3ncccc23)[se]c2ccccc21 | -11.2%
CCCCSC1=NN1c1nc(N)nc(C)c1CC | -4.0%
CCCCC/C=C\C/C=C\C/C=C\C/C=C\CCCC(=O)NCCO | -10.9%&-17.3%&-6.3%
CC(=O)Nc1c2sscc-2n(C)c1=O | -10.7%
Cc1ccc(OCC(=O)NCCN2CCN(C(=O)COc3ccc(C)cc3)CC2)cc1 | -2.5%
CCCCn1c(O)c(/C=C/C=Nc2ccccc2)c(=O)[nH]c1=O | -15.8%
NS(=O)(=O)c1ccc(-c2ccc([As](=O)(O)O)cc2)cc1 | -10.8%
CN(C)c1ccc(P(=O)(Nc2ccc([N+](=O)[O-])cc2)N2CCOCC2)c(NC(=O)c2cccs2)c1 (stereo not given) | ?
COc1ccccc1N1CCN(Cc2ccc(Cl)cc2Cl)CC1 | 3.6%
CS(=N)(=O)CC[C@H](N)P(=O)(O)O (stereo not given in full) | -6.0%
CCC(C)c1ccc(N2C(=O)NC(=O)/C(=C/c3cccn3CCOc3ccc(C)cc3)C2=O)cc1 (stereo not given) | -12.4%
BrC(Br)Br | -1.8%
CC(O)(CS(=O)(=O)c1cccc(C(F)(F)F)c1)C(=O)Nc1cccc(C(F)(F)F)c1 (stereo not given) | -7.7%
CC(=O)OCC1=C(C(=O)O)N2C(=O)[C@@H](N)[C@@H]2SC1 | -11.7%
COc1ccc2[nH]c3c(c2c1)CCNC3 | -25.6%

High-throughput results: PubChem, National Center for Advancing Translational Sciences (NCATS)

These rows are one share of the data. The share of hits here may be higher or lower than overall.
